Screens deposited in PubChem by National Center for Advancing Translational Sciences (NCATS).
HSD17B inhib: HSD17B dehydrogenase inhibition; Q99714; recombinant HSD17B10, NADH fluorescence kinetic; many of its hits are not listed in these tables; Potency, µM (series often up to 57.1 µM), inactives show at the top dose activity change, negative = inhibition, usual class: inhibitors; hit rate 7.6% among 75,000; active = well fitted inhibition curve with a large enough effect; inconclusive = small, poorly fitted or top-dose-only effect; inactive = no such curve, though single readings can be large or run the other way;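 note: the protocol describes HADH2 (HSD17B10) and not the HSD17B4 of the title; nearly all actives have a fitted effect of over 70% in size; most hits overshoot -100% by far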
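20 nM HADH2, pH 9.0 Tris/Tween; cpd preinc 15 min RT; start w/ 1 mM NAD+ + 90 uM b-hydroxybutyryl-CoA; kinetic fluor ex360/em450 q30s x 4 min; delta last-first.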
Starred values were filed as active, the others as inactive; ? = inconclusive; & = joins results of further samples; [ ] = another dose, or the depositor's remark. % is set by controls: 0 for no effect and ±100 for the full control effect; potency is the fitted concentration of half-maximal effect. A portion of the library; the hit share may differ from the screen's.

smiles	HSD17B inhib
CCCCCCCCCCCCCC(=O)O[C@H]1[C@@H](C)[C@@]2(O)[C@@H](C=C(CO)C[C@]3(O)C(=O)C(C)=C[C@@H]23)C2C(C)(C)[C@]21OC(C)=O (stereo partly specified)	-20%
CC1O[C@@H](OC2CC[C@@]3(C=O)C4CC[C@]5(C)C(C6=CC(=O)OC6)CC[C@@]5(O)C4CC[C@]3(O)C2)C(O)C(O)C1O (stereo partly specified)	3%
CCCCCCC(N)CC(=O)O (stereo unspecified)	6%
CC(C)=CCCC1(C)C=Cc2c(O)c3c(c(CC=C(C)C)c2O1)OC12C(CC4CC1C(C)(C)OC2(C/C=C(/C)C(=O)O)C4O)C3=O (stereo unspecified)	?
O=C(Nc1ccccc1)N1CCCC2(CCN(C(=O)Oc3ccccc3)CC2)C1	5%
c1ccc2c(c1)CNc1ccccc1O2	2%
O=C(N1CCOCC1)C1(c2ccccc2)CCNCC1	5%[11.4 µM]
C[C@@H](CO)NC(=O)[C@@H]1C=C2c3cccc4[nH]cc(c34)C[C@H]2N(C)C1	32µM*

Entries listed so far that have a COOH group, in the order listed:
smiles	HSD17B inhib
CCCCCCC(N)CC(=O)O (stereo unspecified)	6%
CC(C)=CCCC1(C)C=Cc2c(O)c3c(c(CC=C(C)C)c2O1)OC12C(CC4CC1C(C)(C)OC2(C/C=C(/C)C(=O)O)C4O)C3=O (stereo unspecified)	?

Continued:
smiles	HSD17B inhib
C=C(C)CSc1nnc([C@@H](N)Cc2c[nH]c3ccccc23)o1	-6%
Cl/C=C/Cl	10%
CCOC(=O)c1ccc(N2C(=O)CC(N3CCC(C#N)(c4ccccc4)CC3)C2=O)cc1 (stereo unspecified)	-13%
O=C(Oc1ccnc2cc(Cl)ccc12)N1CCOCC1	?
CN(C)P(=O)(C(Cl)=C(N1CCCCC1)N1CCCCC1)N(C)C	-6%
CCN(CC)CCOC(=O)c1cc2cc(COC)ccc2o1	25µM*
CC(C)NC(=O)N1CCC2(CCNCC2)CC1	8%
CCCCC(=O)Cl	-1%
Cc1ccc(-c2nc(CS(=O)CC(=O)N3CCC4(CC3)OCCO4)c(C)o2)cc1 (stereo unspecified)	-5%
O=C1CCCN1CC#CCN1CCCC1	2%&-4%&7%
Cc1cc(C)cc(C(=O)OC2C[C@H]3CC[C@@H](C2)N3C)c1 (stereo partly specified)	1%
COc1cc(/C=N/n2cnnc2)ccc1OC(=O)N(C)C	?
O=C(CCN1CCOCC1)NCC(=O)Nc1ccc(Br)cc1C(=O)c1ccccc1	13%
Cc1ccc(Cl)cc1-n1c(O)c(C=NCCCN2CCOCC2)c(=O)[nH]c1=O	-1%
COc1ccc2c(c1OC)C(=O)O[C@@H]2C1c2cc3c(cc2CCN1C)OCO3 (stereo partly specified)	8%
CCCCCn1c(=O)c(C(=O)NCc2ccccn2)c(O)c2ccccc21	-9%
COC(=O)[C@@H]1c2cc3c(c(O)c2[C@@H](O)C[C@]1(C)O)C(=O)c1c(O)cc2c(c1C3=O)O[C@H]1O[C@@]2(C)[C@@H](O)[C@H](N(C)C)[C@H]1O	?
C/C(O)=C(/C#N)C(=O)Nc1cc(Br)ccc1Br	-14%
C[C@]12N[C@H](Cc3ccccc31)c1ccccc12	10%&-11%
O=c1[nH]c(=O)n(Cc2ccc(F)cc2)c(O)c1C=NCC1CCCO1 (stereo unspecified)	-3%
Cc1c(C(=O)N2CCC3(CC2)OCCO3)oc2ccc(S(=O)(=O)N3CCOCC3)cc12	5%
O=C(Cl)C(Cl)(Cl)Cl	2%
O=C(C[C@H](c1ccccc1)c1c(O)c2ccccc2oc1=O)c1ccccc1	1%[11.4 µM]
CCN(CC)CCCN=Cc1c(O)n(-c2ccccc2F)c(=O)[nH]c1=O	0%
COc1ccc2c(c1OC)C(=O)OC2c1c(O)n(Cc2ccc(F)cc2)c(=O)[nH]c1=O (stereo unspecified)	?
CCC(=NCCO)c1c(O)n(-c2ccc(Cl)cc2)c(=O)[nH]c1=O	4%
O=C(O)[C@H]1[O][Sb][O][C@@H](C(=O)O)C1O (stereo partly specified)	7%[11.4 µM]
O=C(c1cccs1)C1CN2CCC1CC2 (stereo unspecified)	10%
CCC1(CC)C(=O)NC(=NCCc2c[nH]c3ccccc23)NC1=O	4%
CC[N+]1(C)CCCC(OC(=O)C(O)(c2ccccc2)c2ccccc2)C1 (stereo unspecified)	2%
CCN1c2nc3c(C)cccn3c(=O)c2CC2(C(=O)N(C)C(=O)N(C)C2=O)C1C (stereo unspecified)	5%
COc1cc2c3cc1Oc1cc(ccc1O)C[C@@H]1c4c(cc(OC)c(O)c4Oc4cccc(c4)C[C@H]3N(C)CC2)CC[N+]1(C)C	2%[25.6 µM]
CC12CN3CC(C)(CN(C1)C3c1cccs1)C2 (stereo unspecified)	-1%
CC12CN3CC(C)(CN(C1)P3(=O)Oc1ccccc1)C2=O (stereo unspecified)	-4%
CN1C2CCC1CC(OC(c1ccccc1)c1ccccc1N)C2 (stereo unspecified)	2%
CCOP(=S)(OCC)Oc1nc(Cl)c(Cl)cc1Cl	-21%
CCOc1ccc(-c2cc(C(=O)N3CCC4(CC3)OCCO4)c3ccccc3n2)cc1	7.9µM*
OC(COCc1ccc(Cl)cc1)CN1CC=C(c2ccccc2)CC1 (stereo unspecified)	-4%
Cc1ccc(P(=S)(c2ccc(C)o2)N2CCOCC2)o1	-1%
CN1CCCCC1c1ccc(-c2cccnc2)nc1 (stereo unspecified)	0%
CC(=O)Nc1ccc(OC(=O)c2ccccc2N)cc1	?
O=c1c2ccccc2nc(-c2ccco2)n1-c1ccc(Br)cn1	0%
CC12CNCC(C)(CNC1)C2O (stereo unspecified)	2%
COc1cc([C@@H](O)CN)ccc1O	-3%
CCOc1cc(-c2c(C#N)c(=O)[nH]c3c2c(C)nn3-c2ccc(F)cc2)ccc1O	?
CCCN1C[C@H](C)N([C@H](c2ccc(C(=O)N(CC)CC)cc2)c2cccc(OC)c2)C[C@H]1C	3%
CCOCCCNC(=O)CN1C2CCC1CC(O)(c1ccc(OC)cc1)C2 (stereo unspecified)	1%
COc1ccccc1-n1c(-c2ccoc2)nc2ccccc2c1=O	-7%
CCCN1[C@H](C(=O)OC)C[C@@H]2CC[C@@H](O)C[C@@H]21	7%
CCCC(C)C(=O)NC1CCSC1=O (stereo unspecified)	1%
O=[N+]([O-])c1ccc(Cl)c(Cl)c1	4%
COC(=O)[C@@H]1C[C@H]2CC[C@H](O)C[C@H]2N1CC1CC1	8%
O[C@@H]1[C@H](O)[C@H]2[C@@H](O)CCN2C[C@@H]1O	8%
CC(=NCCCO)c1c(O)n(Cc2ccccc2)c(=O)[nH]c1=O	1%
CC(C#N)CCC#N (stereo unspecified)	-1%
CC(C)(C)C(O)C(Oc1ccc(Cl)cc1)n1cncn1 (stereo unspecified)	-3%

Next section
smiles	HSD17B inhib
NCCc1c[nH]c2ccc(C(N)=O)cc12	-9%&-9%
c1ccc2c(c1)Sc1ccccc1N2C[C@H]1CN2CCC1CC2	3%[11.4 µM]
CCOC(=O)C1C(C=C(C)C)C1(C)C (stereo unspecified)	-7%
CC(Cl)CCl (stereo unspecified)	5%
COP(=S)(OC)SCn1nnc2ccccc2c1=O	32µM*
CCCCc1ccc2[nH]cc(CCN)c2c1	5%
CC1Cc2c(cnc3c2CN(C)CC3)CO1 (stereo unspecified)	1%[11.4 µM]
CCOC(=O)CNC(=O)CSP(=S)(OCC)OCC	-4%
C[N+]12CCC(CC1)C(C#N)(N1CCOCC1)C2 (stereo unspecified)	13µM*
O=C(Oc1ccc2ccccc2c1)c1ccco1	60%[activator]
CC(N)C(=O)c1ccco1 (stereo unspecified)	-5%
c1ccc(N=Nc2ccccc2)cc1	-3%&-1%
CCCCn1c(=O)c(C(=O)Nc2ccccc2S(N)(=O)=O)c(O)c2ccccc21	1%
COc1ccc(-c2nc(CS(=O)CC(=O)N3CCC4(CC3)OCCO4)c(C)o2)cc1 (stereo unspecified)	-28%
CCC1CN2CCC1CC2C(O)c1ccnc2ccc(OC)cc12 (stereo unspecified)	?
ClC1=C(Cl)C2(Cl)C3C(Cl)C(Cl)CC3C1(Cl)C2(Cl)Cl (stereo unspecified)	-4%
CN(C)C1C(=O)C(C(N)=O)=C(O)[C@@]2(O)C(=O)C3=C(O)c4c(O)cccc4[C@@](C)(O)C3C[C@@H]12 (stereo partly specified)	-5%
O=C(O)c1cccc([As]=[As]c2cccc(C(=O)O)c2)c1 (stereo unspecified)	-6%[11.4 µM]
CN(C)c1ccc(P(=S)(N(C)C)N(C)C)cc1	-15%
Cc1ccc(OP(=O)(Oc2ccc(C)cc2)Oc2ccc(C)cc2)cc1	-10%
OC1(CN2CCOCC2)C2CC3CC(C2)CC1C3 (stereo unspecified)	11%
CC(=O)c1ccccc1NC(=O)C1C2CCC(O2)C1C(=O)O (stereo unspecified)	10%
O=S(=O)(O)c1cc(N=C=S)ccc1/C=C/c1ccc(N=C=S)cc1S(=O)(=O)O	25µM*
C[C@H]1CCCC(=O)CCCCCc2cc(O)cc(O)c2C(=O)O1	-8%
C[C@](N)(CCP(=O)(O)O)C(=O)O	16%
CC1=C2C3OC(=O)[C@H](C)[C@H]3CC[C@@]2(C)C=CC1=O (stereo partly specified)	-1%
COc1cc(CCN)c(OC)c(OC)c1	3%[11.4 µM]
COc1cc(C=C(C#N)C#N)cc(O)c1O	?
CCOC(=O)[C@@H]1[C@@H]2c3ccccc3-c3ccccc3[C@H]2C[C@H]1O	10%[11.4 µM]
C=CCBr	-2%
CC(C)(C)c1cc(C=C(C#N)C#N)cc(C(C)(C)C)c1O	25µM*
Cc1ccc(CS(=O)(=O)CCC(=O)N2CCC3(CC2)OCCO3)cc1	8%
O=C1C2CCCN2C(c2ccc(Cl)c(Cl)c2)N1c1ccccn1 (stereo unspecified)	-4%
CCC/C=C(\CCC)C(NP(=O)(c1ccccc1)c1ccccc1)c1ccccc1 (stereo unspecified)	4%
CCOC(=O)c1c(C)n(CCOC)c2ccc(O)cc12	-1%
Nc1nc(N)c(N=Nc2ccc([As](=O)(O)O)c(O)c2)c(N)n1	-2%[11.4 µM]
CCCN1CC[C@@H]2c3cc(O)ccc3CC[C@H]21	-4%
COc1cc2c(cc1O)CC1c3c(cc(O)c(OC)c3-2)CCN1C (stereo unspecified)	32µM*
Cc1ccc(N2C(=O)NC(=O)C3(Cc4ccccc4N4CCN(c5ccccc5)CC43)C2=O)cc1 (stereo unspecified)	?
Cc1cc(C)n2nc(C)[n+](C)c2n1	-27%
CCN(CC)CCCN=Cc1c(O)n(CCc2ccc(F)cc2)c(=O)[nH]c1=O	4%
CC1CC(=O)O1 (stereo unspecified)	0%
C=CCn1c(O)c(C(C)=Nc2ccc(C(=O)OCC)cc2)c(=O)[nH]c1=O	2%
Cc1ccc2ccccc2c1	4%
COc1cccc(-n2cnc3scc(-c4cccs4)c3c2=O)c1	?
O=c1[nH]c(=O)n(CCC2=CCCCC2)c(O)c1C=NCCCn1ccnc1	4%
C(#CCN1CCOCC1)COCC#Cc1ccccc1	-12%
ClC1=C(Cl)C2(Cl)C3C(Cl)C=CC3C1(Cl)C2(Cl)Cl (stereo unspecified)	2%&-3%
CCN(CC)CCCN=C(C)c1c(O)n(C2CCCCC2)c(=O)[nH]c1=O	0%
CC[C@@]1(O)CC(O)c2c(cc3c(c2O)C(=O)c2c(O)ccc(O)c2C3=O)C1C(=O)OC (stereo partly specified)	-7%
OC1(c2ccc(F)cc2)CC2CCC(C1)N2Cc1nnnn1C1CCCCC1 (stereo unspecified)	7%
N[C@@H](CSC1c2ccccc2-c2ccccc21)C(=O)O	0%[11.4 µM]
CC1CC2(O)c3no[n+]([O-])c3CCC2N1O (stereo unspecified)	8%
CCCNc1oc(-c2cccc3ccccc23)nc1C#N	6.3µM*
c1ccc(N2CC3(CCNCC3)C2)nc1	32µM*
O=C(O)Cn1cc(C(=O)c2ccccc2)c2ccccc21	-1%

Remaining list, next part
smiles	HSD17B inhib
O=C(c1cc2c(s1)CCCCCC2)N1CCC2(CC1)OCCO2	-2%
CC(=O)OC1C[C@H](O[C@@H]2C(O)C[C@H](O[C@@H]3C(O)C[C@@H](OC4CC[C@]5(C)C(CCC6C5CC(O)[C@@]5(C)C(C7=CC(=O)OC7)CC[C@@]65O)C4)OC3C)OC2C)O[C@H](C)[C@H]1O[C@H]1OC(CO)C(O)C(O)C1O (stereo partly specified)	6%
CCOc1c(P(=S)(N(C)C)N(C)C)c(C)nn1-c1ccccc1	0%
CCn1c(C(=O)N2CCC(C(=O)N3CCC4(CC3)OCCO4)CC2)cc2sccc21	4%
N[C@H](Cc1ccc2oc3cc(=O)c4ccccc4c-3nc2c1)C(=O)O	16%[11.4 µM]
C=Cn1ccnc1P(=S)(c1ccn(C)c1)c1nccn1C=C	16%
FC(F)(F)c1ccc(Cl)cc1	-6%
COc1cc2c(cc1O)C[C@@H]1c3c(cc(O)c(OC)c3-2)CCN1C	4µM*
C[N+](C)(C)CC(=O)O	9%
